PK Bst – alters activity of Bacillus stearothermophilus pyruvate kinase. Potency, µM. partly purified Bacillus stearothermophilus pyruvate kinase, luminescence ATP production; ribose 5-phosphate activator present at AC10. AID 361. actives 1.2% (n = 51,000); in the data active means potency below about 11 µM; inconclusive means mostly about 12 µM to 25 µM; inactive means weaker than that;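 the screen sought inhibitors and activators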;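 note: potency is the fitted concentration of half-maximal effect; scaled between full activation by ribose 5 phosphate and full inhibition by luteolin; about four in five hits inhibit and the cells do not say which; series up to 57 µM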
TsaE inh – inhibitors of E. coli YjeE (TsaE); purified YjeE, fluorescence polarisation of a bound ADP probe; actives 0.05% (n = 71,000); AID 605; Potency, µM; P0AF67; active = well fitted falling curve; inconclusive = weaker or top-dose-only fall, or a rising curve; inactive = flat or poorly fitted curve;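 note: top concentration of the series not given in the record; excess ADP was the control for the full effect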
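Purified YjeE (10 uM) with BODIPY Texas Red-labeled ADP probe (2 uM); compounds pin-transferred, 15 min at room temperature. Binding inhibition read as decreased fluorescence polarization; ADP titration as control.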
* = called active by the depositor; i = inactive; nt = not tested or not shown. A portion of the library; count on the stated rates, not on these rows.

Order of values: PK Bst	TsaE inh
CCOC(=O)c1c(C)oc2c1c(C=NCC1CCCO1)c(O)c1ccccc12 (centres undefined)
→ >57	i
CCCCOC(=O)C(C)Oc1ccc(=O)n(-c2ccccc2)n1 (centres undefined)
→ nt	i
COc1cccc(OC)c1OCCN1CCN(C(=O)c2ccco2)CC1
→ >11	nt
OCCCc1nc2ccccc2n1CCc1ccccc1
→ >26	nt
Cc1ccc(-n2c(=O)cc(NCc3cccnc3)[nH]c2=O)cc1
→ >57	i
O=C(OCC(=O)c1ccc(S(=O)(=O)N2CCCC2)cc1)C1=COCCO1
→ >57	i
COc1cc(C)nc(Oc2ccc(=O)[nH]n2)n1
→ >26	nt
O=S(=O)(Nc1ccc(N2CCOCC2)nn1)c1ccccc1
→ >57	i
N#Cc1c(-c2ccccc2)cc(-c2ccco2)c(C#N)c1N
→ nt	i
CCOC(=O)CCCNC(=O)COc1ccccc1C#N
→ >57	i
O=C(OCc1ccc2c(c1)OCO2)c1ccc(S(=O)(=O)N2CCCC2)cc1
→ >57	i
COc1ccc(-n2c(C)cc(C(=O)CSc3nn4c(=O)c(C(C)(C)C)nnc4s3)c2C)cc1
→ >57	i
CCCCCC1=C2CNC(C)(C(=O)OC)C=C2C(C)C1=O (centres undefined)
→ nt	i
CCCc1noc(-c2ccc(-c3ccccc3)cc2)n1
→ i	i
CCn1c(Cc2ccccc2)nnc1SCC(=O)Nc1nc2ccccc2s1
→ >57	i
Cc1cc(C)nc(N2CCC(C(=O)NCC3CCCCC3)CC2)n1
→ >57	i
CN(C)CC(C)(C)CN1c2ccccc2Sc2ccccc21
→ nt	i
Cc1ccc(C)c(-n2c(N)c(C(N)=O)sc2=S)c1
→ >57	i
CCn1cc(CNC(=O)C2C3CCC(C3)C2C(=O)O)cn1 (centres undefined)
→ >57	i
Cc1ccc2cc(CN(CCN3CCOCC3)Cc3nnnn3Cc3ccco3)c(=O)[nH]c2c1C
→ >57	i

Given with each value named: 3 of the compounds above.
CCOC(=O)CCCNC(=O)COc1ccccc1C#N
  PK Bst: >57; TsaE inh: i
O=C(OCc1ccc2c(c1)OCO2)c1ccc(S(=O)(=O)N2CCCC2)cc1
  PK Bst: >57; TsaE inh: i
COc1ccc(-n2c(C)cc(C(=O)CSc3nn4c(=O)c(C(C)(C)C)nnc4s3)c2C)cc1
  PK Bst: >57; TsaE inh: i

Later entries:
Order of values: PK Bst	TsaE inh
COC(=O)C(C)Sc1ccc2nnc(-c3cccc(F)c3)n2n1 (centres undefined)
→ nt	i
c1ccc(-c2cnn3nnnc3n2)cc1
→ >57	i
CCCC(=O)NCCc1cc2c(C)ccc(C)c2[nH]c1=O
→ nt	i
CN(C)CCNC(=O)c1cc2ccccc2oc1=O
→ >57	i
COc1ccc(OC)c(Nc2ncnc3c2cnn3-c2ccccc2)c1
→ nt	i
Cc1ccc(CNC(=O)CSc2ncccn2)cc1
→ >57	i
CC(C)Cc1cc(C(=O)Nc2sc3c(c2C#N)CCCC3)no1
→ nt	i
Cc1nn(CCCNC(=O)C2CCCO2)cc1Br (centres undefined)
→ >57	i
O=C(c1cccc(C(=O)N2CCN(c3ccccc3F)CC2)c1)N1CCN(c2ccccc2F)CC1
→ nt	i
COc1ccc(CCNC(=O)CC2Nc3ccccc3NC2=O)cc1OC (centres undefined)
→ >57	i
COc1ccc(S(=O)(=O)Nc2cc(C)ccc2OC)cc1C
→ >57	i
CN(C)Cc1ccc(C(C)(C)C)cc1-c1cc(C(C)(C)C)ccc1CN(C)C
→ nt	i
CCN(CCNC(=O)CN1CCN(Cc2ccc(Cl)cc2)C1=O)c1ccccc1
→ >57	i
COc1ccc(-c2nnc(SCCc3ccccc3)n2N)cc1
→ >57	i
COc1ccc2nc(NC(=O)C3CCCN(S(=O)(=O)c4c(C)noc4C)C3)sc2c1 (centres undefined)
→ nt	i
COc1ccc(C)cc1S(=O)(=O)N(C)CC(=O)NC1CCCCC1
→ >57	i
Cc1cc(Nc2ccc(F)c(Cl)c2)n2ncnc2n1
→ nt	i
Nc1nc(Cl)nc2c1ncn2[C@@H]1O[C@H](CO)[C@@H](O)[C@H]1O
→ >26	nt
CCOC(=O)c1cc2sc(C)cc2n1CC(=O)N1CCN(C(=O)c2ccco2)CC1
→ >57	i
CCCCNC(=O)Nc1ccccc1C(=O)NCc1ccco1
→ >57	i
CN(C)S(=O)(=O)c1cccc(C(=O)NCC2CCCO2)c1 (centres undefined)
→ >57	i
COCCOC(=O)C1=C(C)NC2=C(C(=O)CCC2)C1c1cc2c(cc1Br)OCO2 (centres undefined)
→ nt	i
O=C=Nc1ccc(Cc2ccc(N=C=O)cc2)cc1 (tested in a mixture with another compound)
→ nt	i
C[C@@H](C(=O)Nc1ccc2ccccc2c1)[C@H]1C[C@]1(C)[C@H](NP(=O)(c1ccccc1)c1ccccc1)c1ccccc1
→ nt	i
COc1cc2c(cc1OC)C(C(=O)NCc1cccnc1)C(c1cccnc1)N(C)C2=O (centres undefined)
→ >57	i
Cc1nnc(NC(=O)Cc2cccs2)s1
→ >57	i
COc1ccc(-n2c(=O)cnc3cnc(N(C)C)nc32)cc1
→ nt	i
Cc1nc(CN2CCCC2=NC#N)n(-c2ccccc2)n1
→ nt	i
Nc1c(N2CCCC2)cc(Cl)c2nonc12
→ >57	i
CC(c1ccccc1)C1CC(=O)N(c2ccc(C(=O)O)cc2)C1=O (centres undefined)
→ >57	i
Cc1cc(C)n(C(=O)CSc2nnc(SCC(=O)n3nc(C)cc3C)s2)n1
→ >57	i
COc1cccc(C(=O)CSc2nnc(-c3cc(OC)cc(OC)c3)o2)c1
→ >57	i
Cc1ccc(-c2nc3cnccn3c2Nc2ccccc2)o1
→ nt	i
O=C(CSc1nc2c(c(=O)n1-c1ccc(Cl)cc1)SCC2)NCC1CCCO1 (centres undefined)
→ >57	i
CCOc1cccc(C(=O)N2CCCCC2c2cccnc2)c1 (centres undefined)
→ nt	i
COc1cccc(-c2nc(NCc3ccccc3OC)c3ccccc3n2)c1
→ nt	i
COc1ccc(C(C)C)cc1S(=O)(=O)N1CCN(C)CC1
→ >57	i
O=C(CCCSc1nc2ccccc2[nH]1)Nc1nnc(-c2ccccc2)o1
→ >57	i
N#Cc1c(NC(=O)CN2CCOCC2)oc(-c2ccccc2)c1-c1ccccc1
→ >57	i
COc1ccc(-c2cc(C(=O)N3CCc4ccccc4C3)no2)cc1OC
→ nt	i

One compound at a time, as listed above. Screens in order: PK Bst | TsaE inh
CN(C)S(=O)(=O)c1cccc(C(=O)NCC2CCCO2)c1 (centres undefined) as listed: >57 | i
COc1ccc(-c2cc(C(=O)N3CCc4ccccc4C3)no2)cc1OC as listed: nt | i
Cc1cc(C)n(C(=O)CSc2nnc(SCC(=O)n3nc(C)cc3C)s2)n1 as listed: >57 | i

The listing picks up, starting two compounds before the break.
Order of values: PK Bst	TsaE inh
N#Cc1c(NC(=O)CN2CCOCC2)oc(-c2ccccc2)c1-c1ccccc1
→ >57	i
COc1ccc(-c2cc(C(=O)N3CCc4ccccc4C3)no2)cc1OC
→ nt	i
CCc1ccc(C2N(c3ccc(OC)cc3)C(=O)C3CCCN32)cc1 (centres undefined)
→ nt	i
CCC(C)(C(=O)NC1CCCC1)N(Cc1ccco1)C(=O)c1ccc2c(c1)OCO2 (centres undefined)
→ >57	i
O=C(Cn1cc2c(n1)CCCC2)N1CCCc2ccccc21
→ nt	i
O=C(CSc1nc2[nH]ncc2c(=O)n1-c1ccccc1Br)NCc1ccco1
→ >57	i
CCOc1ccc(NS(=O)(=O)c2ccc3[nH]cc(C(=O)NCCOC)c(=O)c3c2)cc1
→ >57	i
Clc1ccccc1C(c1nnnn1Cc1ccco1)N1CCN(Cc2ccco2)CC1 (centres undefined)
→ >57	i
O=C1CC(c2nc3ccccc3[nH]2)CN1Cc1ccccc1 (centres undefined)
→ nt	i
Cc1ccc(S(=O)(=O)NC(=NC(C)C(=O)O)c2ccccc2)cc1 (centres undefined)
→ nt	i
CC1(C)Cc2[nH]c(=S)c(C#N)cc2CO1
→ >26	nt
Cc1ccc2c(c1C)NC(C)CC2C (centres undefined)
→ >57	i
Cc1oc2cc(O)ccc2c(=O)c1-c1cnn(-c2ccccc2)c1
→ >26	nt
CCCn1c(Sc2nnnn2-c2ccccc2)n[nH]c1=O
→ >57	i
Cn1c(=O)[nH]c(=O)c2[nH]c(N(Cc3ccccc3)Cc3ccccc3)nc21
→ >57	i
Cn1c(C(=O)NCCC2=CCCCC2)cc2c(=O)n3ccccc3nc21
→ >57	i
O=[n+]1c2c(n([O-])c3cc(F)ccc31)CCCC2
→ >57	i
CCOC(=O)c1c(C)[nH]c(/C(C)=N/O)c1C
→ >26	nt
NC1=C(O)C(=O)[C@H](c2c[nH]c3ccc(OCc4ccccc4)cc23)O1
→ nt	i
COCCN(CCOC)c1nc(C)nc2c1nc(-c1ccccc1)n2CC1CCN(C)CC1
→ nt	i
Cc1noc(C)c1S(=O)(=O)N1CCCC(C(=O)Nc2ccc(Cl)cn2)C1 (centres undefined)
→ >57	i
CCN(CC)S(=O)(=O)c1ccc2[nH]c(=O)[nH]c2c1
→ >57	i

Next compounds follow.
Compound | PK Bst | TsaE inh
COc1ncc2nc(-c3ccccc3)c(=O)n(Cc3cccs3)c2n1 | nt | i
O=C(c1ccncc1)N1CCC2(CC1)CN(c1ccccn1)C2 | nt | i
Fc1cccc(F)c1C(Nc1nncs1)Nc1nncs1 | nt | i
Cc1cccc(N2C(=O)CC(N(C(=O)c3ccco3)c3cccc(C)c3)C2=O)c1 (centres undefined) | >57 | i
O=C(O)c1c[nH]c2c(ccc3[nH]cc(C(=O)O)c(=O)c32)c1=O | nt | i
Cc1c(C)c2ccc(OC3CCCCC3=O)cc2oc1=O (centres undefined) | nt | i
CS(=O)(=O)Nc1ccc(C(=O)NCCSCc2ccco2)cc1 | >57 | i
CC1(C)CC(NC(=O)C(F)(F)F)CC(C)(C)N1OC(=O)c1ccco1 | >57 | i
CO[C@H]1C[C@@H]2CC[C@@H](C)[C@@](O)(O2)C(=O)C(=O)N2CCCC[C@H]2C(=O)O[C@H]([C@H](C)C[C@@H]2CC[C@@H](O)[C@H](OC)C2)CC(=O)[C@H](C)C=C(C)[C@@H](O)[C@@H](OC)C(=O)[C@H](C)C[C@H](C)C=CC=CC=C1C | >26 | nt
Cc1ccc(OCCn2c(=O)cnc3ccccc32)cc1 | >57 | i
O=S(=O)(N1CCCCC1)n1c(Cc2ccccc2)nc2ccccc21 | >57 | i
CCOc1ccccc1N1CC(C(=O)Nc2ccc(C(=O)O)cc2)CC1=O (centres undefined) | >57 | i
CCOC(=O)C1CCCN(Cc2cc(Br)ccc2OC)C1 (centres undefined) | nt | i
Cc1ccc2c(c1)N(CCCC(=O)NCC1COc3ccccc3O1)C(=O)CO2 (centres undefined) | >57 | i
CC(C)(C)n1nnnc1C(c1cccs1)N(Cc1cccnc1)CC1CCCO1 (centres undefined) | >57 | i
O=C1NC(O)=NC1(c1ccccc1)c1ccccc1 | nt | i
CCOC(=O)C1CCCN(C/C(O)=C(\C#N)c2nc(-c3ccc(Cl)cc3)cs2)C1 (centres undefined) | nt | i
OCCN1CCN(CCC=C2c3ccccc3Sc3ccc(Cl)cc32)CC1 | nt | i
CC(=O)c1cccc(NC(=O)C2CCCN(S(=O)(=O)c3ccc(F)cc3)C2)c1 (centres undefined) | i | i
Cn1c(=O)cc(SCC(=O)N2CCN(Cc3ccc4c(c3)OCO4)CC2)c2ccccc21 | >57 | i
CCOC(=O)CSc1cc(C)nc(N)n1 | >57 | i
COc1ccc(N2CCN(CCNC(=O)CCCn3c(=O)[nH]c4cc(Cl)ccc4c3=O)CC2)cc1 | >57 | i
Cc1cc(NS(=O)(=O)c2ccc(NC(=O)CCCC(=O)O)cc2)nc(C)n1 | nt | i
COc1ccc(C(NC(C)=O)c2ccc3cccnc3c2O)c(OC)c1 (centres undefined) | nt | i
COCCN(C(=O)CNC(=O)c1cccs1)C(C(=O)NC1CCCCC1)c1ccco1 (centres undefined) | >57 | i
COc1ccccc1CN(Cc1cc2c(C)ccc(C)c2[nH]c1=O)Cc1nnnn1Cc1ccco1 | >57 | i
CCCC1(C(=O)O)NC(c2ccccc2O)C2C(=O)N(c3cccc(Cl)c3)C(=O)C21 (centres undefined) | nt | i
COc1ccc(OC)c(S(=O)(=O)N2CCN(C34CC5CC(CC(C5)C3)C4)CC2)c1 | >57 | i
CCCc1cc(C(=O)NCC(C)C)no1 | nt | i
CC1CCCCN1C(=O)c1ccc(C(=O)N2CCCCC2C)cc1 (centres undefined) | nt | i
O=C(O)CCCc1ccc2ccc3ccccc3c2c1 | nt | i
O=C(NCCN1CCN(Cc2ccccc2)CC1)C1c2ccccc2C(=O)N2CCc3ccccc3C12 (centres undefined) | >57 | i
CCOC(=O)C1CCN(C(=O)Nc2ccc(Cl)cc2)CC1 | nt | i
CCn1ccc(=N)cc1 | >57 | i
O=C1CCCN1CCCn1cnc2c([nH]c3ccc(F)cc32)c1=O | nt | i
COC(=O)c1ccc(CSc2nc3ccccc3o2)cc1 | i | i
Cc1ccc2c(c1)N(CC(=O)N1CCCc3ccccc31)C(=O)CO2 | >57 | i
CCOC(=O)c1c(N2C(=O)C3C4C=CC(O4)C3C2=O)sc2c1CCCC2 (centres undefined) | nt | i
CCc1cc2c(=O)n(-c3ccccc3)cnc2s1 | >57 | i
